Screening results (PubChem BioAssay)
PABP FP inh: PABP-poly(A) binding inhibition. P11940. PABP-poly(A) RNA binding, fluorescence polarization. inhibition, % at 35 µM. actives 1% (n = 290,000);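 active means 50% or more with normal probe brightness, or confirmed in later tests; about a fifth of its hits are not listed in these tables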;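 further: calls also rest on retests at 20 µM and on dose response follow-up; controls were probe without protein and protein plus probe with vehicle; some compounds called inactive have numbers as strong as hits; many hits fall short of the cut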
Target sequence (P11940 whole entry, looked up): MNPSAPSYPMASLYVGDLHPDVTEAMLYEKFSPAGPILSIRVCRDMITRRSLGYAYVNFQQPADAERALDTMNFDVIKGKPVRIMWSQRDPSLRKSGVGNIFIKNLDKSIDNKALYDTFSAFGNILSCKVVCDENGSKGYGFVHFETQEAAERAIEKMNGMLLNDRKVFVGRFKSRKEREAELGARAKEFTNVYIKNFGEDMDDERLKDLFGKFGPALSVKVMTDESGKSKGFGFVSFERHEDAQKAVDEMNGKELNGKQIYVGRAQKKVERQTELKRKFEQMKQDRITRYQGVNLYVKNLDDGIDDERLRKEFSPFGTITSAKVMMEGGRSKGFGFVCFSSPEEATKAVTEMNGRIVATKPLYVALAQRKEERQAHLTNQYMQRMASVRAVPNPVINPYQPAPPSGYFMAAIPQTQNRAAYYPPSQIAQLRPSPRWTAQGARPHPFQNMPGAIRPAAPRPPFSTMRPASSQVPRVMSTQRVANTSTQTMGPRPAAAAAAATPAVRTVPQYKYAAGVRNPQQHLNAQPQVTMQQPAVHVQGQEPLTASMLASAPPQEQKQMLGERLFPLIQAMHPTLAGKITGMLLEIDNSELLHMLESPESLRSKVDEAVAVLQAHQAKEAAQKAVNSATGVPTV
UUG fidelity: alters start codon recognition fidelity in yeast. actives 0.13% (n = 350,000). activity score, % at 18.7 µM. S. cerevisiae UUG-firefly luciferase reporter, luminescence/redox ratio. AID 602363;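 active means replicate mean at a twofold rise or more, about +100% in these data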;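 further: firefly luciferase made from a UUG start codon reports start codon fidelity; reporter light over untreated wells divided by growth signal over untreated wells; some hits fall short of that in this replicate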
Env fusion inh: inhibitors of HIV Env-mediated cell fusion | HeLa-JRFL Env/CEM21 cell fusion, luciferase | inhibition, % at 12.3 µM | actives 1.1% (n = 360,000) | AID 651610;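 active means mean replicate inhibition score of at least 50 and every replicate individually at or above 50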;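 further: 0% = plate neutral controls and 100% = maraviroc near 300 nM; one replicate is shown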
eIF4H inh: inhibitors of RNA binding by human eIF4H. Q15056. AID 2012. inhibition, % at 35 µM. actives 0.94% (n = 290,000). eIF4H fluorescence polarization binding assay;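 active means 50% or more with normal probe brightness, or confirmed in later tests; about a fifth of its hits are not listed in these tables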;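 further: calls also rest on retests at 20 µM and on dose response follow-up; 0% = protein and probe with vehicle and 100% = probe without protein; strong numbers were not always called active; many hits fall short of the cut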
Rce1 inh: blocks yeast Ras-converting enzyme; Q03530; yeast membranes, quenched prenylated peptide cleavage fluorescence; calls only; actives 0.27% (n = 290,000); AID 2563;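 active means fall in fluorescence gain of 50% or more versus controls, with final raw signal at or below 3038400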;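 further: plate controls were neutral control wells for no effect and wells lacking membranes for full effect; tested at 10 µM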
Target sequence (Q03530 whole entry, looked up): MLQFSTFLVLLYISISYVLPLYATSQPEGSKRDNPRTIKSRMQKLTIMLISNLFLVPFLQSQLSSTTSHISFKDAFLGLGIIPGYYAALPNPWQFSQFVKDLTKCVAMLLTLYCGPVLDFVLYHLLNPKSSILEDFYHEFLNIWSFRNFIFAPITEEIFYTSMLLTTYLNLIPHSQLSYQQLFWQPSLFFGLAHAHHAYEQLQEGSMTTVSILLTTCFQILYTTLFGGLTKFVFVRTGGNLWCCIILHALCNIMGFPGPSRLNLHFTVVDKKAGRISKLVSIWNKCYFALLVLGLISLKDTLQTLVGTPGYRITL
CSC inhib: blocks cancer stem cells | cancer stem cell-like cells viability, luminescence | inhibition, % at 7.5 µM | actives 1.1% (n = 300,000);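 active means mean at 75% or more and at least half the replicates too; tested in HMLE shEcad cells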;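 further: 0% = median of negative and 100% = median of positive control wells; the first replicate is given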
MT1-MMP act inh: blocks activation of human MT1-MMP | P50281 | HT1080 RFP-PRO-GFP cells, GFP/RFP ratio fluorescence, overnight; percent of plate control window, DMSO zero | GFP/RFP ratio change, % at 20 µM | actives 0.061% (n = 360,000) | AID 651647;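 active means GFP/RFP ratio change of at least 30% with cell ATP level not reduced by more than half and red fluorescence within 50% of control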; further: strong numbers were not always called active
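Assay system: RFP-PRO-GFP reporter HT1080 cells; read-out basis: GFP/RFP fluorescence ratio; benchmarks: DMSO wells and RFP-L50D-GFP cells; doses: 20 µM single dose, 1% DMSO; schedule: overnight cell settling, then overnight compound exposure, 37 °C, 5% CO2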
MT1-MMP act inh RFP: further read-out of MT1-MMP act inh, marked with its call; RFP signal change, %; measured here: RFP expression control read;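 0 = vehicle wells; hits needed this value within 50% of zero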
An asterisk follows results filed as active; i = inactive; . = not tested or not shown; + = active, no number. This is a subset (hit frequency here may not be typical).

SMILES	PABP FP inh	UUG fidelity	Env fusion inh	eIF4H inh	Rce1 inh	CSC inhib	MT1-MMP act inh	MT1-MMP act inh RFP
O=C(C1CCCN(Cc2ccncc2)C1)N1CCc2ccccc2C1 (configuration not stated)	-0.2	-14.0	.	3.6	i	-35.2	5.5	6.5
O=C(O)CCCCCNC(=O)c1ccncc1	-4.0	-13.6	9.8	-8.4	i	-1.9	-1.7	-6.1
c1ccc(Cn2ncc3c(NCc4ccco4)ncnc32)cc1	5.9	-3.6	-28.3	0.7	i	3.1	-1.1	0.7
C=CCNc1nc(NCc2ccc(N(C)C)cc2)c2sc(-c3ccccc3)cc2n1	.	-8.6	-268.9	.	.	.	0.5	-8.9
O=C(CN(Cc1ccccc1F)S(=O)(=O)c1ccc(Cl)cc1)NCCCO	-1.5	-0.8	11.4	-4.7	i	7.1	-3.5	-0.4
CCOC(=O)c1c(C)[nH]c(C)c1C(=O)COC(=O)/C=C/c1ccc(OC(F)F)cc1	-5.5	-11.9	7.6	-6.7	i	10.5	-0.7	-5.6
OCCn1c(SCCOc2ccccc2)nc2ccccc21	-9.0	-11.8	.	-2.5	i	.	3.4	-3.0
COC(=O)[C@]1(Cc2ccccc2)N[C@H](CN(C)C(=O)Nc2ccc(C(F)(F)F)cc2)[C@@H]2C(=O)N(C)C(=O)[C@@H]21	.	-0.3	2.4	.	.	4.6	0.2	-4.9
COc1ccc(Cl)cc1NC(=S)NC(=O)c1ccco1	.	-21.7	-115.0	.	.	.	-0.3	-0.2
COc1ccc(N=N/C(C(C)=O)=C(/C)O)cc1	0.6	.	2.7	10.9	i	-23.9	-1.7	-4.5
CN(C(=O)C1CCCCN1S(=O)(=O)c1ccccc1)c1ccccc1 (configuration not stated)	.	-18.5	17.0	.	.	-8.4	7.8	-3.3
COc1ccccc1C(=O)COC(=O)CN1C(=O)C2CC=CCC2C1=O (configuration not stated)	.	.	4.5	.	.	0.1	2.3	5.3
O=C(NC1CCCCC1)C(c1ccco1)N(Cc1cccs1)C(=O)Cn1nnc2ccccc21 (configuration not stated)	-5.1	2.1	-13.7	3.5	.	5.6	2.2	-1.2
CCOC(CNC(=O)C(=O)Nc1cc2c3c(c1)CCC(=O)N3CCC2)OCC	-2.0	2.3	7.5	6.3	i	-3.0	1.5	-3.3
CN1CCN(CCCNC(=O)c2cc3c(-c4ccc(Cl)cc4)nn(C)c3s2)CC1	-1.8	-10.2	-61.0	10.5	+	.	-0.4	7.2
O=C(COc1ccc(Cl)cc1)NCc1nnc(SCC(=O)N2CCCCC2)o1	-1.0	-19.2	-1.5	-5.7	i	0.5	6.1	6.9
CN1CCN(C(=O)/C=C/c2ccc([N+](=O)[O-])cc2)CC1	6.3	4.8	-4.8	1.6	i	-13.9	-11.0	-1.0
Cc1ccc(C(=O)NC2CCN(S(=O)(=O)c3ccc(C)cc3)CC2)cc1	-7.2	.	15.7	-4.1	i	-0.6	-4.1	-2.9
COc1ccccc1N1CC(C(=O)Nc2ccccc2N2CCCC2)CC1=O (configuration not stated)	.	-5.9	0.0	.	i	-8.3	-3.8	-1.3
CCc1nc2ccccc2c(NC(=O)CN2CC(C)CC(C)C2)c1C (configuration not stated)	11.7	1.2	21.6	-1.3	i	2.2	-3.9	-1.0
O=C1Nc2ccccc2SC1=Cc1ccccc1	.	3.5	-9.0	.	.	.	-6.3	6.6
C[n+]1cn(Cc2ccc(C#N)cc2)c2ccccc21	-7.0	-11.7	-5.2	-6.4	i	12.8	-0.3	0.9
NC(=O)CC(NC(=O)Cc1ccc(Cl)cc1)c1ccc(NC2CCCCC2)c([N+](=O)[O-])c1 (configuration not stated)	6.0	-12.5	-1.5	8.5	i	19.4	4.4	3.4
Nc1nc(SCc2cccc([N+](=O)[O-])c2)n[nH]1	4.1	-16.6	-21.8	3.8	i	-2.0	2.4	3.1

Record cards, as listed above:
NC(=O)CC(NC(=O)Cc1ccc(Cl)cc1)c1ccc(NC2CCCCC2)c([N+](=O)[O-])c1 (configuration not stated) across the screens: PABP FP inh = 6.0; UUG fidelity = -12.5; Env fusion inh = -1.5; eIF4H inh = 8.5; Rce1 inh = i; CSC inhib = 19.4; MT1-MMP act inh = 4.4; MT1-MMP act inh RFP = 3.4
O=C(CN(Cc1ccccc1F)S(=O)(=O)c1ccc(Cl)cc1)NCCCO across the screens: PABP FP inh = -1.5; UUG fidelity = -0.8; Env fusion inh = 11.4; eIF4H inh = -4.7; Rce1 inh = i; CSC inhib = 7.1; MT1-MMP act inh = -3.5; MT1-MMP act inh RFP = -0.4

Next part.
SMILES	PABP FP inh	UUG fidelity	Env fusion inh	eIF4H inh	Rce1 inh	CSC inhib	MT1-MMP act inh	MT1-MMP act inh RFP
NC(=O)CN1C(=O)C2C3C=CC(C3)C2C1=O (configuration not stated)	10.9	-4.1	-8.4	-6.1	i	-10.2	-3.1	-1.1
O=C(NNC(=O)c1ccc(-c2ccccc2)cc1)Nc1ccccc1F	-5.2	-4.4	2.7	-8.6	i	0.2	-0.8	-3.2
CCC(NC(=O)c1ccccc1NC(=O)c1ccco1)C(=O)NC1CCCCC1 (configuration not stated)	1.1	-16.1	.	-7.1	i	.	1.0	2.2
O=C(NC(=S)Nc1ccc(N2CCOCC2)cc1)c1cccc(Cl)c1Cl	2.5	-9.4	-12.8	-5.2	i	-9.8	4.8	6.7
CCO[C@@H]1OC(C(=O)N2CCN(Cc3ccccc3)CC2)=C[C@H](C)[C@H]1CCCO	3.7	1.1	-9.0	-2.8	i	-2.1	2.6	1.0
Cc1c(=O)n(OCc2ccccn2)c2ccccc2[n+]1[O-]	-3.6	-25.7	-82.7	-8.0	i	-9.7	-14.1	3.7
O=C(CN(c1ccccc1)S(=O)(=O)c1ccc(Cl)cc1)Nc1cccnc1	0.1	-0.8	8.0	-1.5	i	.	0.0	-2.5
CC(C)CC(=O)Nc1cc2c3c(c1)CCN3C(=O)CC2	-14.1	-10.4	-3.2	-2.7	i	-0.7	1.1	5.5
COc1ccc(NC(=O)COc2ccc(-c3ccccc3)cc2)cc1	.	-3.4	-35.4	.	.	.	7.9	-1.1
CCC(=O)N1CCC1(C)C(=O)Nc1cccc2c1CCCC2 (configuration not stated)	.	-13.4	25.0	.	.	.	0.4	2.4
CSc1nc2c(cc1C#N)C(=O)CC(C)(C)C2	1.4	.	-16.1	-14.8	i	10.3	-0.5	-0.1
CCOC(=O)/C(=C\c1ccc(OC)c(OC)c1)C(=O)c1cccnc1	-1.0	-15.6	8.3	-1.9	i	-5.5	-1.0	0.8
Cc1nnc(N2C(=O)c3cccc4cccc(c34)C2=O)s1	-6.5	.	.	-1.7	i	2.0	-7.6	3.0
CN(Cc1ccon1)C(=O)CC1C(=O)NCCN1Cc1cccc(F)c1F (configuration not stated)	5.5	-12.6	.	12.4	i	-5.0	2.6	3.9
CSc1ccc(S(=O)(=O)NCC(=O)OCC(=O)N2CCC(C)CC2)cc1[N+](=O)[O-]	.	-7.6	.	.	.	-16.6	-0.6	4.1
CC(=O)CSc1nnc(C(F)(F)F)n1C	-4.3	.	-6.1	-9.7	i	-0.1	-1.3	-1.1
COc1ccc(-c2noc(COc3ccc(C)c(C)c3)n2)cc1OC	1.5	-6.5	-171.6	-13.1	i	-4.9	2.6	3.3
COC(=O)c1ccc(CSc2n[nH]c(C)n2)o1	-3.2	-7.4	.	6.2	i	-10.1	2.3	6.9
Cc1nn(Cc2c(Cl)cccc2Cl)c(C)c1N	-14.2	-11.9	-48.6	2.2	i	-20.2	-4.6	-3.0
COCc1cccc(C2=CC(=O)C[C@H](c3ccc(OC)cc3)C2)c1	.	-6.7	12.3	.	.	-4.7	3.7	-1.7
C=C1CCN([C@H](C(=O)OCc2cccc(C)c2)C(C)C)S(=O)(=O)c2ccccc21	2.5	-12.9	75.8*	-17.0	i	2.8	-6.7	-5.8
Cc1cc(C(=O)CN2C(=O)NC(c3ccccc3)(c3ccccc3)C2=O)c(C)n1Cc1ccccc1	-2.2	-3.2	.	-4.9	i	.	-9.0	-3.8
COc1ccccc1NC(=O)Cc1csc(NC(=S)Nc2ccc(C)cc2)n1	-4.5	-25.7	36.6	6.7	i	-17.4	2.9	-9.0
O=C(COC(=O)c1ccc(Cl)nc1)Nc1ccc2ccccc2c1	.	-9.5	-110.4	.	.	.	4.5	2.8
COc1cccc(C2CC(c3cccs3)Nc3ncnn32)c1 (configuration not stated)	-2.1	-22.3	.	1.3	i	-2.1	0.8	2.3
Cc1cc(C)n(CC(O)COc2ccc(Cl)cc2)n1 (configuration not stated)	3.0	-28.4	-19.0	2.6	i	-0.4	3.8	1.1
CCc1ccc(OCC(=O)N(C)CCC#N)c(Br)c1	-1.1	-14.0	-14.5	-4.4	i	-2.2	-0.7	5.3
O=C(NCCNCC(O)COc1ccc(O)cc1)N1CCOCC1 (configuration not stated)	.	6.9	14.1	.	.	.	6.0	4.7
Cc1ccccc1C(=O)Nc1ccc(C(=O)O)cc1NC(=O)c1ccccc1C	-3.2	-5.9	-1.1	2.4	i	1.6	0.2	0.6
C/C(=N\N=C(N)N)c1ccc(Cl)c(Cl)c1	18.0	4.3	2.0	-5.2	i	21.8	-9.3	1.8
O=C(O)CCc1ccc(-c2ccc(F)cc2)n1NC(=O)c1ccco1	12.9	-12.3	.	9.8	i	.	4.3	-1.7
CC(=O)C1C(=O)CC(C)(O)C(C(C)=O)C1c1ccc(N(C)C)cc1 (configuration not stated)	5.0	-4.4	-61.1	8.0	i	3.3	-4.7	-0.6
CCn1c(-c2ccc3[nH]c(C)c(C)c3c2)n[nH]c1=S	8.3	5.3	.	-6.7	i	-1.8	11.0	-8.4
O=C(COc1ccccc1Cl)NC(=S)Nc1ccccc1N1CCCC1	12.5	-4.0	2.0	18.8	i	-12.2	4.5	4.0
CC(=O)N(Cc1cc(=O)[nH]c2ccccc12)c1ccccc1	2.7	-2.7	.	-10.6	i	-9.3	4.0	2.5
CCCNc1nc(C)nc2c1cnn2CCc1ccccc1	6.6	-11.3	.	-3.8	i	-11.8	4.1	0.4
O=C(Nc1ncccc1O)C1CCN(S(=O)(=O)c2ccc3ccccc3c2)CC1	.	.	-2.0	.	i	0.1	-0.7	-0.8
COc1ccc(CCNC(=O)Cn2nnc(C(=O)Nc3cc(C)ccc3C)c2N)cc1OC	-6.6	-18.3	8.8	-4.1	i	-5.6	1.7	-7.6
CC1(C)CC(=O)C(N=Nc2ccc3ncsc3c2)=C(O)C1	3.3	5.8	-2.4	3.5	i	12.5	-0.3	2.7

A run of entries taken from the entries so far:
SMILES	PABP FP inh	UUG fidelity	Env fusion inh	eIF4H inh	Rce1 inh	CSC inhib	MT1-MMP act inh	MT1-MMP act inh RFP
O=C(O)CCc1ccc(-c2ccc(F)cc2)n1NC(=O)c1ccco1	12.9	-12.3	.	9.8	i	.	4.3	-1.7
CC(=O)C1C(=O)CC(C)(O)C(C(C)=O)C1c1ccc(N(C)C)cc1 (configuration not stated)	5.0	-4.4	-61.1	8.0	i	3.3	-4.7	-0.6
CCn1c(-c2ccc3[nH]c(C)c(C)c3c2)n[nH]c1=S	8.3	5.3	.	-6.7	i	-1.8	11.0	-8.4
O=C(COc1ccccc1Cl)NC(=S)Nc1ccccc1N1CCCC1	12.5	-4.0	2.0	18.8	i	-12.2	4.5	4.0
CC(=O)N(Cc1cc(=O)[nH]c2ccccc12)c1ccccc1	2.7	-2.7	.	-10.6	i	-9.3	4.0	2.5
CCCNc1nc(C)nc2c1cnn2CCc1ccccc1	6.6	-11.3	.	-3.8	i	-11.8	4.1	0.4
O=C(Nc1ncccc1O)C1CCN(S(=O)(=O)c2ccc3ccccc3c2)CC1	.	.	-2.0	.	i	0.1	-0.7	-0.8
COc1ccc(CCNC(=O)Cn2nnc(C(=O)Nc3cc(C)ccc3C)c2N)cc1OC	-6.6	-18.3	8.8	-4.1	i	-5.6	1.7	-7.6
CC1(C)CC(=O)C(N=Nc2ccc3ncsc3c2)=C(O)C1	3.3	5.8	-2.4	3.5	i	12.5	-0.3	2.7
